Menin-MLL FL inh: menin-MLL binding inhibition, fluorescein peptide. Fluorescence polarization, fluorescein-MLL peptide displacement from menin. FP activity change, % at 61.4 µM. 290,000 tested, under 10 active. AID 1766; inconclusive = falling polarisation curve, or a change in total fluorescence; inactive = total fluorescence flat and polarisation flat or rising; no compound was filed as active; the % refers to the polarisation; negative = inhibition;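 note: % of control where 0% means no effect; inhibitors lower the polarisation; unlabelled MLL peptide was the positive control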
ClpP mod: qHTS Assay for Activators of ClpP; Potency, µM (titrated, usually from 57.5 µM), without a hit: top-dose activity change, negative = active; ATP-dependent Clp protease proteolytic subunit (Bacillus subtilis (strain 168)), P80244; AID 651965, 2013; 340,000 tested, 1.9% active; purified B. subtilis ClpP, FRET peptide cleavage, 20 min; active = well fitted falling curve with a large enough effect; inconclusive = small, poorly fitted or top-dose-only effect; inactive = no such curve, though single readings can be large or run the other way; note: potency is the fitted concentration of half-maximal effect; the source files actives as falling curves though it sought activators and does not explain the sign; nearly all actives have a fitted effect of over 65% in size; many hits overshoot -100%
Target sequence (P80244 whole entry, looked up): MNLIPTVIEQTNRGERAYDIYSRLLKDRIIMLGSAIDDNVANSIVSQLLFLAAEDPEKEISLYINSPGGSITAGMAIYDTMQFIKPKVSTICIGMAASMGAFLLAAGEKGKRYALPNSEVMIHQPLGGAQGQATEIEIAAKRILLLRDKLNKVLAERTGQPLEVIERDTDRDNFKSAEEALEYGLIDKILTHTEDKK
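FRET quenching reversal measured ClpP activation: 10 microg/mL B. subtilis ClpP at pH 8 with the FRET-FV decapeptide, read at 430 nm after 320 nm excitation. The 20-min minus 0-min signal was scaled between DMSO/no-enzyme wells and ADEP (5.8 microM final).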
TRPML1 blocker: inhibitors of human TRPML1 channel; activity change, negative = inhibition, % (test concentration not listed); 390,000 tested, 0.02% active; TRPML1-inducible cells, Ca2+ dye fluorescence, FDSS; stronger effect = lower value; inhibition of EC80 agonist-evoked calcium signal; Q9GZU1; in the data active means activity change below about -50%; inconclusive means about -30% to -50%; inactive means above about -30%;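 note: stimulus is agonist 54-4 at its EC80 concentration; % is set by controls: 0 for no effect and ±100 for the full control effect; compound concentration not given in the record; the text of the record puts the active cut at -80%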
Target sequence (Q9GZU1 whole entry, looked up): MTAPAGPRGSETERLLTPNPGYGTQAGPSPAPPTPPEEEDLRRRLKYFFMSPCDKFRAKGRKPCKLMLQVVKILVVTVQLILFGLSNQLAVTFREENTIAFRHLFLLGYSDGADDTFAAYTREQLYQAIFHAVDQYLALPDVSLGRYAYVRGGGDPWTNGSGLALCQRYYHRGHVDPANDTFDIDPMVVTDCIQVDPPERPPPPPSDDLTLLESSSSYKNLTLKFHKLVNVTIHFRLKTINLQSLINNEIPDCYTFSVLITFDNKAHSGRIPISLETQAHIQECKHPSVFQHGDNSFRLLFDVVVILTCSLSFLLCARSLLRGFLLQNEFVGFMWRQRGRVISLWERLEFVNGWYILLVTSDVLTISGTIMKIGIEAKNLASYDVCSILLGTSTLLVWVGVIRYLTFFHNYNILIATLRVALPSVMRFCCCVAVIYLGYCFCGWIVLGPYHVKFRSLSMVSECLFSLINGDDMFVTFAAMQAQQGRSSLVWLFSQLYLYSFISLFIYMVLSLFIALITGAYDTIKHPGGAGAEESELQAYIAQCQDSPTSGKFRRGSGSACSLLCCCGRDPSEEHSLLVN
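Calcium fluorescence in TRPML1-DL cells induced overnight with Tet: a 110 s read after compound pin addition, then a 110 s antagonist read after challenge with 54-4 at 4 uM final (EC80).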
gsp agonist: agonists of gsp mutant (McCune-Albright syndrome) | gsp mutant cells, cAMP HTRF, 30 min; control for the full effect not named in the record | Potency, µM (top dose mostly 76.9 µM), for the others: at the highest dose activation (cAMP increase), usual class: activators | 340,000 tested, 0.13% active | AID 624287; active = well fitted activation curve with a large enough effect; inconclusive = small, poorly fitted or top-dose-only effect, or another doubt; inactive = no such curve, though single readings can be large or run the other way; cell line not stated here;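 note: phosphodiesterase inhibitor Ro 20-1724 added with compounds to block cAMP breakdown; potency is the fitted concentration of half-maximal effect; nearly all actives have a fitted effect of over 60% in size; about a fifth of the inactives were tested at one dose only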
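Cells stably selected in G418 were plated at 2000/well, grown 16-24 hr, then given compounds in DMSO with the PDE inhibitor […] (300 uM solution added) for 30 min at 37C; cAMP was read by HTRF.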
gsp antagonist: antagonizes gsp, the McCune-Albright syndrome mutation; gsp-mutant cells, cAMP HTRF, 30 min; control for the full effect not named in the record; Potency, µM (highest dose often 76.9 µM), for the others: at the highest dose activity change, negative = inhibition, most hits filed as inhibitors; 340,000 tested, 0.4% active; active = falling curve of any shape with a large fitted effect; inconclusive = falling curve, mostly with a smaller effect; inactive = flat or rising curve; cell line not stated here;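 note: intracellular cAMP measured with PDE inhibitor Ro 20-1724 present during compound exposure; potency is the fitted concentration of half-maximal effect; % is set by controls: 0 for no effect and ±100 for the full control effect; nearly all actives have a fitted effect of over 65% in size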
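HTRF cAMP read-out (cAMP-d2 plus anti-cAMP antibody-K in lysis buffer, 30 min RT). Before lysis, cells are exposed to compounds with […] for 30 min at 37C in DPBS containing Ca/Mg, BSA and Tween 20.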
TRPML1 agonist: activates the human TRPML1 channel. Q9GZU1. TRPML1-expressing cells, Ca2+ dye fluorescence, FDSS; host cell line not named in the record; reference of the full effect not given here. activation, % (test concentration not listed). 410,000 tested, 0.12% active; in the data active = activation above about 50%; inconclusive = about 30% to 50%; inactive = below about 30%; note: 0% is about no effect; the text of the record puts the active cut at 80%
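Tetracycline-induced TRPML1-DL cells are seeded and incubated overnight before loading with a no-wash Ca2+ dye and quencher. Agonist activity is taken from the 110 s fluorescence read following compound pin-transfer on an FDSS, before EC80 54-4 challenge.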
* hit, by the source's call; ? = inconclusive; . = no result given; & = joins results of further samples; [ ] = dose if it differs, or a comment.

No.	Molecule	TRPML1 blocker	gsp antagonist	Menin-MLL FL inh	TRPML1 agonist	ClpP mod	gsp agonist
1	COC(=O)C(CCCN1C(=O)c2ccccc2C1=O)(NC(C)=O)c1nnn(C)n1 (configuration not stated)	14	14%	2.2	-0.4	.	2%[15.4 µM]
2	CC(=O)c1cccc(NC2c3ccccc3C(=O)N2Cc2ccc3c(c2)OCO3)c1 (configuration not stated)	-4	-11%	0.1	0.7	-2.0%	-87%[inhibitor]
3	CCc1ccc(N2CC(C(=O)OCc3nc4ccsc4c(=O)[nH]3)CC2=O)cc1 (configuration not stated)	-25	-5%	.	-0.3	-6.4%	7%
4	Cc1ccc2nc(SCC(=O)c3c[nH]c4ccccc34)[nH]c2c1	-2	-12%	-5.2	4.0	.	3%[15.4 µM]
5	CCOC(=O)c1c(NC(=O)C2=C(C)NC(=S)NC2c2ccc(C)cc2)sc(C)c1C (configuration not stated)	15	-10%	5.0	0.7	-2.7%	1%[15.4 µM]
6	COc1ccc(CNC(=O)/C=C/c2cc3c(cc2Br)OCO3)cc1	-8	-7%	3.2	0.1	25µM*	-18%
7	COc1ccc(-c2nsc3c(N4CCN(S(=O)(=O)c5ccccc5F)CC4)ncnc23)cc1	-9	21%	0.9	0.5	-21%	0%
8	CCOC(=O)C1(Cc2ccccc2)CCCN(C(=O)c2ccc(-n3ccnc3)cc2)C1 (configuration not stated)	14	-18%	.	0.2	-0.4%	0%
9	Cc1cc(NC(=O)CC#N)n(-c2ccccc2)n1	3	0%	-1.9	1.1	2.1%	22%
10	CC(C)N(C(=O)N1CCN(c2ccnc3cc(Cl)ccc23)CC1)C(C)C	37	?	2.1	2.2	.	-2%
11	Cc1nc(-c2ccccc2)sc1C1(C)CC(c2ccc(C#N)cc2)=NO1 (configuration not stated)	26	10%	-0.6	-1.0	-5.2%	.
12	COc1ccc(NC(=O)CSc2ccc3nc(-c4ccccc4)cn3n2)c(OC)c1	6	.	.	1.2	-27%	.
13	O=C(NNC(=S)Nc1ccc(F)cc1F)c1ccco1	11	7%	0.9	-0.6	2.5%	6%
14	CC(C)(C)c1cc(Br)c(O)c(N=Nc2ccc(S(=O)(=O)N3CCOCC3)cc2)c1	-6	-1%	1.3	0.2	0.5%	0%
15	CC1CCN(C(=O)COc2ccc(S(=O)(=O)N3CCOCC3)cc2)CC1	-6	15%	.	-0.2	1.8%	-11%

Part of the list above, showing only gsp agonist, Menin-MLL FL inh and ClpP mod:
no.	Structure	gsp agonist	Menin-MLL FL inh	ClpP mod
11	Cc1nc(-c2ccccc2)sc1C1(C)CC(c2ccc(C#N)cc2)=NO1 (configuration not stated)	.	-0.6	-5.2%
12	COc1ccc(NC(=O)CSc2ccc3nc(-c4ccccc4)cn3n2)c(OC)c1	.	.	-27%
13	O=C(NNC(=S)Nc1ccc(F)cc1F)c1ccco1	6%	0.9	2.5%

Later entries
No.	Molecule	TRPML1 blocker	gsp antagonist	Menin-MLL FL inh	TRPML1 agonist	ClpP mod	gsp agonist
16	Cc1ccc(CN2CCSc3ccc(C(=O)N4CCN(c5ccc(Cl)cc5)CC4)cc32)cc1	-7	.	.	-0.3	?	.
17	CC1(C)CC(=O)c2c(oc3ccc(NS(=O)(=O)c4ccc(C(=O)O)cc4)cc23)C1	36	-1%	-0.5	0.3	.	-34%[inhibitor]
18	O=S(=O)(Nc1cccc(CCc2ccccn2)c1)c1cc(Cl)ccc1Cl	13	-25%	2.7	-0.2	-2.1%	5%[15.4 µM]
19	O=C(CCc1ccccc1)N=C1SC2CS(=O)(=O)CC2N1c1ccccc1 (configuration not stated)	12	1%	.	-0.5	-2.6%	17%
20	CCOC(=O)c1cccc(NC(=O)NC2COc3ccccc3C2)c1 (configuration not stated)	-7	.	.	0.0	-5.6%	.
21	CC(=O)C1=C(O)C(=O)N(c2nccs2)C1c1ccc(Br)cc1 (configuration not stated)	19	-13%	4.9	-0.7	-12%	?
22	CCOC(=O)C1(Cc2ccccc2)CCN(Cc2ccc3cc(NC(C)=O)ccc3n2)CC1	-6	3%	16	-0.2	.	-2%[15.4 µM]
23	CCC(C)(C)NC(=O)C1CCN(c2nc(OC)nc(OC)n2)CC1	8	-11%	-1.0	5.2	0.2%	-9%
24	CSc1nc2ccc(S(N)(=O)=O)cc2s1	4	9%	3.9	-0.2	-2.5%	8%
25	Cc1cc(NC(=O)C2C3C(=O)N(Cc4ccc(Cl)cc4)C(C(=O)NCc4ccccc4)C34C=CC2(C)O4)no1 (configuration not stated)	40	4%	0.8	0.6	-1.1%	1%
26	O=C(c1ccccc1)c1ccc2ccccc2n1	-3	14%	4.2	0.4	1.0%	-4%
27	O=C(/C=C/N1CCN(Cc2ccccc2)CC1)C(F)(F)F	7	8%	1.3	0.3	-2.2%	25%
28	O=C(NCN1C(=O)C2C3C=CC(C3)C2C1=O)Nc1nccs1 (configuration not stated)	9	1%	-0.3	-0.3	-0.2%	?
29	N#Cc1c(Cl)nc(-c2ccncc2)nc1-c1ccccc1	1	-4%	-10	0.0	-5.0%	-4%
30	COc1ccc(-n2nnnc2SCC(=O)Nc2cccc(O)c2)cc1	-8	-14%	1.6	0.5	1.2%	2%[15.4 µM]

Further compounds follow.
No.	Molecule	TRPML1 blocker	gsp antagonist	Menin-MLL FL inh	TRPML1 agonist	ClpP mod	gsp agonist
31	O=C1c2[nH]nc(-c3ccc(Br)cc3)c2C(c2cccc(O)c2)N1c1ccc(Cl)cc1 (configuration not stated)	12	.	.	0.7	96%	.
32	CCN(CC)S(=O)(=O)c1ccc2c(c1)N(CC(=O)Nc1c(C)cccc1C)C(=O)C1CCCN21 (configuration not stated)	0	.	.	0.3	-18%	.
33	CC(C)(C)Nc1nc2ccc([N+](=O)[O-])cc2o1	-6	1%	3.0	-0.1	.	?
34	CCC(=O)N1CCCc2cc(S(=O)(=O)N3CCN(c4ncccn4)CC3)ccc21	-11	6%	0.0	1.3	-12%	-324%[inhibitor]
35	CCOC(=O)c1cc(-c2cccs2)nc2onc(C)c12	-7	8%	1.4	-0.5	32µM*	-34%[inhibitor]
36	Cc1cccn2cc(CCNS(=O)(=O)c3cccc([N+](=O)[O-])c3)nc12	-26	0%	4.7	0.3	.	-13%[15.4 µM]
37	COc1cc(-c2noc(C)c2/C=C/c2ccc(OC(C)=O)cc2)cc(OC)c1OC	37	18%	0.3	2.7&-0.7	-7.6%&-8.3%	?
38	COc1ccccc1N1CCN(C(CNC(=O)C(=O)NCCN(C)C)c2cccnc2)CC1 (configuration not stated)	11	.	.	0.3	1.3%	.
39	O=C(c1nc2ccccn2c1CNCC1OCCc2ccccc21)N1CCOCC1 (configuration not stated)	1	4%	2.2	1.1	.	-16%[15.4 µM]
40	O=c1c2c3nc4ccccc4nc3n(/N=C/c3ccco3)c2ncn1CCC1=CCCCC1	4	-17%	-2.2	0.5	-2.6%	-47%[inhibitor]
41	CCOC(=O)Nc1ccc(OC)c([N+](=O)[O-])c1	8	5%	0.6	0.1	.	-1%
42	CC(C)c1ccc(NC(=O)CSC2=Nc3ccccc3C3=NC(CC(=O)NC4CCCCC4)C(=O)N23)cc1 (configuration not stated)	3	.	.	4.1	-2.3%	.
43	Cc1ccc(-c2cc(C(=O)OCn3nnc4ccccc4c3=O)c3ccccc3n2)cc1	1	8%	-1.5	9.0	?	0%[15.4 µM]
44	CS(=O)(=O)c1ccccc1-c1nc(-c2cccc(Cl)c2)no1	12	-4%	-0.7	5.1	.	-7%[15.4 µM]
45	Cc1nnc(SCC(=O)Nc2sccc2C#N)s1	-13	?	.	-0.6	-1.3%	13%

(listing goes on)
No.	Molecule	TRPML1 blocker	gsp antagonist	Menin-MLL FL inh	TRPML1 agonist	ClpP mod	gsp agonist
46	O=C1CC(=O)N(CCNc2ncc(C(F)(F)F)cc2Cl)C(=O)N1	-9	1%	22	0.7	-3.1%	8%
47	Cc1nc2ccccc2c(=O)n1/N=C/c1ccncc1	25	4%	2.8	0.2	-2.7%	9%
48	Cc1ccc2c(CSc3nncs3)cc(=O)oc2c1	-10	-4%	-1.1	0.1	-0.9%	-2%
49	C=CCn1cccc(C(=O)Nc2ccc(OCC)cc2)c1=O	3	1%	-0.4	0.3	.	9%[15.4 µM]
50	C(=N\n1cnnc1)/c1ccc2ncccc2c1	-7	-2%	5.5	-0.1	-1.7%	-41%
51	CN(C)S(=O)(=O)c1cccc(NC(=S)Nc2ccc(Cl)cc2Cl)c1	37	12%	0.4	-0.3	-1.0%	-9%
52	NC(=O)C1CC(=O)N(c2ccc(OCC(=O)Nc3cccc(C(F)(F)F)c3)cc2)C1 (configuration not stated)	6	-10%	-1.6	-0.8	-1.6%	19%
53	COc1ccc(OC)c(CCNC(=O)c2cc3cccc4c3n2CC(C)S4)c1 (configuration not stated)	17	.	.	0.8	32µM*	.
54	O=C(COc1ncnc2c(Cl)cc(Cl)cc12)N1CCN(S(=O)(=O)c2ccccc2)CC1	-15	-1%	0.6	-0.7	1.1%	-10%
55	COCc1cc(C)n(CC(=O)OC)c(=O)c1C#N	-5	?	0.8	-0.4	.	2%[15.4 µM]
56	CS(=O)(=O)c1cnc(-c2cccnc2)nc1N	4	17%	-0.1	-0.1	.	-1%[15.4 µM]
57	Cc1cc(C)c2nc(N3CCOCC3)c(C#N)cc2c1	-4	12%	3.9	-0.1	.	29%
58	COc1cccc(C(=O)Nc2ccc(N3CCCC3)cc2)c1	-21	1%	11	0.4	1.3%	9%
59	CC1(C)C(C(=O)OCC(Cl)(Cl)Cl)N2C(=O)C(NC(=O)Cc3ccccc3)C2S1=O (configuration not stated)	5	-3%	5.9	0.6	-0.7%	6%
60	O=CN1CCN(C(C(=O)NC2CCCC2)c2cc3c(cc2[N+](=O)[O-])OCO3)CC1 (configuration not stated)	11	2%	-3.0	-0.3	.	14%[15.4 µM]
61	CCc1cc(C(=O)N2CCCC(C(=O)c3ccc(Cl)cc3)C2)no1 (configuration not stated)	14	-6%	1.7	-1.5	-1.0%	21%
62	C[C@@H](C(=O)Nc1nc2ccccc2s1)N1C(=O)C2CC=CCC2C1=O (some centres not stated)	4	-4%	2.0	-0.3	-7.7%	5%[15.4 µM]

High-throughput results as filed in PubChem BioAssay.
